# VDR inhibitor: Inhibitors of the vitamin D receptor (VDR): qHTS | VDR-SRC2-3 peptide fluorescence polarization, 2 h | Potency, µM, for inactives: max response, negative = inhibition, actives largely listed as inhibitors | actives 0.93% (n = 400,000) | Vitamin D3 receptor (Homo sapiens), P11473; active = well fitted inhibition curve with a large enough effect; inconclusive = small, poorly fitted or top-dose-only effect, or another doubt; inactive = no such curve, though single readings can be large or run the other way; note: series mostly up to about 120 µM
# Target sequence (P11473 whole entry, looked up): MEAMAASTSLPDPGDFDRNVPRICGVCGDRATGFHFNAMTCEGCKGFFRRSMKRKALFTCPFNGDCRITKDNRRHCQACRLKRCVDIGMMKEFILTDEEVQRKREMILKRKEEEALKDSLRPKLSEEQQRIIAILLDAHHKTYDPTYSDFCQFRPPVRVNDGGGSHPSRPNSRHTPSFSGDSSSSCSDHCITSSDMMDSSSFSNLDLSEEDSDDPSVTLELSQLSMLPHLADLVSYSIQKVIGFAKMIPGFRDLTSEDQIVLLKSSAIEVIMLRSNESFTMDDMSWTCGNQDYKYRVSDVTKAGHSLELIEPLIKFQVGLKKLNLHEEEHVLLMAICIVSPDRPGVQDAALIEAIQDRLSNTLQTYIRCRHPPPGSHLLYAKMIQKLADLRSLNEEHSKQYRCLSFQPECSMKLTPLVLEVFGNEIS
#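 After 23 nl compound addition and a short centrifugation, plates sat for 2 hours at ambient temperature; polarization of fluorescence then indicated loss of VDR binding to peptide SRC2-3.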
# Active calls of the source: *; u = inconclusive; & = joins results of further samples. % is set by controls: 0 for no effect and ±100 for the full control effect; potency is the fitted concentration of half-maximal effect.
canonical_smiles	VDR inhibitor
CC(=O)O/N=C(\N)c1ccc(-c2csnn2)cc1	15%
COC(C[C@@H]1O[C@@H]1[C@@H](O)[C@@H](C)OCc1ccccc1)OC	-23%
COc1ccccc1NC(=O)CC(NCCN(C)C)C(=O)O (configuration not stated)	-2%
COc1ccc(OC)c(-n2cc3c(=O)n(C)c(=O)n(C)c3c2)c1	-2%
COc1ccc2oc(C)c(C(=O)Cn3ccnc3)c2c1	-1%
COc1ccc(OC)c(CN2CCCC(CCC(=O)N(C)CCc3ccccn3)C2)c1 (configuration not stated)	6%
COCCn1c(=O)[nH]c2cc(C(=O)NCCc3ccc(OC)c(OC)c3)ccc2c1=O	-8%
CCNC(=O)C(=O)NCC1OCCCN1S(=O)(=O)c1ccc(F)cc1C (configuration not stated)	1%
O=C(CC1SC(=Nc2ccc3c(c2)OCCO3)NC1=O)Nc1ccc(F)cc1F (configuration not stated)	4%
CC(C)c1cc2c(c(O)c1O)[C@@]13CCCC(C)(C)C1CC2OC3=O (some centres not stated)	u
CCOC(=O)c1nnc(-c2cccs2)nc1Oc1ccccc1C(=O)OC	2%
O=C(NNC(=S)NC(=O)c1cccs1)c1cccnc1	-12%
Cc1ccccc1CSc1nc2ccccc2c(=O)[nH]1	-3%
Cc1ccc(NC(=O)C2Cc3ccccc3CN2C(=O)c2ccccc2)cc1Cl (configuration not stated)	-13%
CC(NC(=O)C12CC3CC(CC(O)(C3)C1)C2)c1ccccc1 (configuration not stated)	20%

canonical_smiles	VDR inhibitor
COCCn1c(SCC(=O)Nc2cccnc2Cl)nc2ccccc21	-6%
CCOC(=O)c1c(C)c(-c2ccccc2)n(CC(=O)NCc2cccc(OC)c2)c1C	6%
CC(C)OC(=O)CSc1nc2ncccc2[nH]1	u
Cc1ccc2cc(CN(CC3CCCO3)C(=S)Nc3ccccc3)c(=O)[nH]c2c1 (configuration not stated)	5%
COc1ccc(-c2nnc(SCC(=O)NC3CCCCC3)o2)cc1	-11%
CC(C)(C)OC(=O)C[C@H]1C/C=C\C[C@H](CC(=O)N(CCO)Cc2ccccc2)C(=O)N[C@@H](c2ccccc2)COC1=O	-1%
COc1cc(CNCc2ccc(OC)c(OC)c2OC)cc(OC)c1	-14%
Cc1[nH]n(-c2ccccc2)c(=O)c1-c1ccc(Cl)cc1	-11%
Cc1ccc(-c2nc(C(=O)O)cs2)cc1	-17%
CCCc1cc(C(=O)Nc2ccccc2C(=O)OC)no1	-20%
Cc1ccc(Nc2nnc(SCC(=O)Nc3ccccc3[N+](=O)[O-])s2)cc1	-13%
Cc1ccc(C)c(OCCN2C(=O)NC3(CCc4ccccc4C3)C2=O)c1 (configuration not stated)	1%
COc1ccc(NC(=O)c2c(C)oc3ccc(O)c(CN4CCCC(C)C4)c23)cc1Cl (configuration not stated)	13%
CC(=NNC(=O)c1ccncc1)c1ccccc1Cl	-1%
N#Cc1c(-c2ccccc2)cc2nc3ccccc3n2c1N	-1%

canonical_smiles	VDR inhibitor
COc1ccc(-c2[nH]nc(-c3ccccc3)c2-c2nc3ccccc3[nH]2)cc1	-4%
Cc1oc(-c2ccccc2Cl)nc1CS(=O)CC(=O)NCc1ccc(Cl)cc1 (configuration not stated)	-8%&-9%
CCc1nnc(NC(=O)Cc2ccc(Br)cc2)s1	-5%
C=C1C(=O)O[C@@H]2C[C@@H](C)[C@@H]3C=CC(=O)[C@@]3(C)[C@@H](OC(C)=O)[C@H]12	u
CCCC(=O)Nc1ncnc2c1ncn2[C@@H]1O[C@H]2COP(=O)(O)O[C@@H]2[C@@H]1OC(=O)CCC	2%
COc1ccc(NC(=O)N(C)C[C@H]2Oc3ccc(NS(=O)(=O)c4cccs4)cc3C(=O)N([C@H](C)CO)C[C@@H]2C)cc1	-15%
CCOC(=O)C(NC(=O)c1cccc(Cl)c1)(Nc1sc2c(c1C(N)=O)CCC2)C(F)(F)F (configuration not stated)	-18%
COc1ccccc1NC(=O)Nc1ccc2c(c1)nc(C)n2C	-5%
O=C(Cn1cncn1)NCc1ccc(Cl)cc1	5%
CCS(=O)(=O)c1c([N+](=O)[O-])ncn1C	-16%
O=C(O)c1cc(-c2ccccc2Cl)n(-c2ccc(F)cc2)n1	-23%
CCOC(=O)C(NC(=O)c1ccccc1Cl)(Nc1ccc(C)c(C)c1)C(F)(F)F (configuration not stated)	-15%
C=CCNc1ncnc2c1cnn2-c1cccc(C)c1	-18%
Cc1ccc(C)c(N(CC(=O)NC2CCCC2)C(=O)CNC(=O)c2cccs2)c1	2%
Cc1ccc(C(=O)N2CCN(c3ncccn3)CC2)cc1NC1=NC2CS(=O)(=O)CC2S1 (configuration not stated)	1%

canonical_smiles	VDR inhibitor
COCCCNC(=O)c1cc2c(-c3ccc(Cl)cc3)nn(C)c2s1	-9%
Cc1cc(S(=O)(=O)N2CCN(C(=O)CCC(=O)N3CCOCC3)CC2)ccc1Br	-16%
Cc1ccc(NC(=O)C2CCN(S(=O)(=O)c3ccc4c(c3)CC(C)N4C(=O)C3CCC3)CC2)nc1 (configuration not stated)	-4%
COc1cc(/C=N/NC(=O)C(=O)NCc2ccco2)cc(Br)c1O	14%
CC1(c2ccccc2)O[C@@H]2C[C@H]3[C@@H]4CCC5=CC(=O)C=C[C@]5(C)[C@@]4(F)[C@@H](O)C[C@]3(C)[C@]2(C(=O)CO)O1 (some centres not stated)	7%
CCOC(=O)CNC(=O)CSc1nnc(SCC(=O)NCC(=O)OCC)s1	-14%
CN1CCN(c2nc(-c3cccc(NS(C)(=O)=O)c3)nc3ccccc23)CC1	1%
COc1ccccc1NC(=O)NC1(C(=O)N2CCC(C)CC2)CCCCC1	-5%
O=S(=O)(/C=C/c1ccccc1)N1CCOCC1	2%
O=C(O)CCc1nn2c3ccccc3n(CC(=O)c3cccs3)c2nc1=O	7%
Cc1cccc(OCC(=O)Nc2ccccc2N2CCN(C)CC2)c1	-8%
Cc1ccc2nc(-c3ccc(S(=O)(=O)N4CCCCC4)cc3)cn2c1	-11%
Cc1cc(C)n(-c2cc(N3CCOCC3)nc(-c3ccccc3)n2)n1	-2%
CCNC(=O)c1c(O)c2cccc3c2n(c1=O)CC3	6%
COc1ccccc1CNC(=O)c1ccc2nc3[nH]c4ccccc4c3nc2c1	1%

canonical_smiles	VDR inhibitor
Cn1nnc(NC(=S)NC(=O)c2cccc3c(Cl)cccc23)n1	20%
CC(/C=N\NC(=O)CN1CCN(S(=O)(=O)c2ccc(C)cc2)CC1)=C\c1ccccc1	-10%
Cc1cccc(N2CC(O)=C(c3nc4ccccc4n3C)C2=N)c1	-9%
Cc1ccc2oc(=O)c(/C=C(\O)c3ccccc3)nc2c1	-2%
O=C1c2ccccc2C(=O)N1CC1=CCS(=O)(=O)C1	14%
CCOC(=O)C(NC(=O)c1ccc(F)cc1)(Nc1sc2c(c1C(N)=O)CCC2)C(F)(F)F (configuration not stated)	u
O=C(CN1C(=O)C2C3C=CC(C3)C2C1=O)OCC(=O)c1ccc(Cl)c([N+](=O)[O-])c1 (configuration not stated)	-9%
COCC(=O)N(C)CC1CCCN(CCc2ccccc2OC)C1 (configuration not stated)	-21%
CC(C)NC(=O)CCCc1ccccc1	-9%
O=C(Nc1ncccc1O)c1cccc(S(=O)(=O)N2CCCC2)c1	-14%
CCOCCCNC(=O)C(NC(=O)C1CCC(C)CC1)C(C)C (configuration not stated)	-3%
CCN(CC)CCCNC(=O)c1cc(-c2ccc(O)cc2)on1	-13%
COc1ccc([C@H]2[C@H](C(=O)C(C)(C)C)N3N=Cc4ccccc4C3[C@]23N=C(c2ccccc2)OC3=O)cc1 (some centres not stated)	8%
COc1cc(NC(=O)COC(=O)Cn2cnc3c2c(=O)n(C)c(=O)n3C)cc(OC)c1	0%
Cc1ccc(/C=C(\C#N)C(=O)Nc2cccc(C)n2)cc1	-17%

# 3 consecutive compounds already listed, for reference:
canonical_smiles	VDR inhibitor
COCC(=O)N(C)CC1CCCN(CCc2ccccc2OC)C1 (configuration not stated)	-21%
CC(C)NC(=O)CCCc1ccccc1	-9%
O=C(Nc1ncccc1O)c1cccc(S(=O)(=O)N2CCCC2)c1	-14%

# The list goes on:
canonical_smiles	VDR inhibitor
Cc1cc(Br)ccc1NC(=O)CNC(=O)CNc1cccc([N+](=O)[O-])c1	-15%
Nc1cc(Cl)ccc1C(=O)OCC(=O)NCC1CCCO1 (configuration not stated)	-7%
CC[C@H](NC(C)C)[C@H](O)c1ccc(O)c(O)c1	9%
COc1ccc([N+](=O)[O-])cc1NC1C2CC3CC(C2)CC1C3 (configuration not stated)	7%
CSc1ccc(CN(C)C(=O)c2cccc(S(=O)(=O)N3CCN(Cc4ccccc4)CC3)c2)cc1	5%
CC1=C(C(=O)Nc2cccc(F)c2)C2(CCCCCC2)OC1=O	1%
CNC(=O)c1cc(S(=O)(=O)N2CC(C)OC(C)C2)ccc1N1CCOCC1 (configuration not stated)	11%
CCCC(=O)n1nc(-c2cccnc2)nc1NCc1ccc(OC)cc1	-17%&20%
O=[N+]([O-])c1ccccc1OCCCN1CCc2ccccc2C1	-5%
CC(C)(C)c1nc2ccccc2c2nnc(SCC(=O)NCc3ccco3)n12	-6%
O=C(NCc1ccco1)c1c(O)c2cccc3c2n(c1=O)CCC3	2%
CCCCc1cc(O)c(CCCC)c(O)c1	19%
COc1ccc(CNC(=O)CCc2cn(Cc3cc(C)ccc3C)c3ccccc23)cc1OC	19%
Cc1ccc(S(=O)(=O)N(CC(=O)Nc2ccc(C(N)=O)cc2)C(=O)N2CCN(C)CC2)cc1	-6%
C=CC[C@H](CC(=O)N(CCO)Cc1ccccc1)C(=O)NC[C@@H](OC(=O)[C@@H](CC=C)Cc1ccc(F)cc1)c1ccccc1	-22%

canonical_smiles	VDR inhibitor
CCc1cc[n+](C2=C([O-])c3ccccc3C(=O)/C2=N\S(=O)(=O)c2cccs2)cc1	2%
O=C(CSc1ccc(-c2cccnc2)nn1)N1CCCC1	0%
CCCNC(=O)c1csc(Nc2cccc3ccccc23)n1	-7%
C/C(CC(=O)Nc1ccc(Cl)cc1)=N\NC(=O)C(=O)N1CCCCC1	-16%
Cc1ccc2cc3c(N)c(C(=O)Nc4c(C)[nH]c(=O)[nH]c4=O)sc3nc2c1	1%
N#Cc1cccc(NC(=O)N2CCCC3(CCN(C(=O)c4ccco4)CC3)C2)c1	-22%
Cc1ccccc1-c1nc2ccccc2c(=O)n1/N=C/c1ccc([N+](=O)[O-])cc1	9%
CC12CCC(=O)N1C(C(=O)N1CCN(S(=O)(=O)c3ccc(F)c(F)c3)CC1)CS2 (configuration not stated)	-2%
COc1ccccc1NC(=O)c1nnn(CC(=O)Nc2ccccc2)c1N	-10%
COc1ccc(N=Cc2c(O)cc(C)oc2=O)cc1	-14%
CC(C)OC(=O)CCC(=O)Nc1nc2ccccc2s1	7%
O=[N+]([O-])c1cc(-c2nc(-c3ccccc3)no2)ccc1N1CCN(c2ccccc2)CC1	5%
O=C(CSc1nnc(-c2ccc([N+](=O)[O-])cc2)o1)Nc1ccccn1	14%
O=C(N/C(=C/c1ccco1)C(=O)N1CCOCC1)c1ccc([N+](=O)[O-])cc1	-16%
CC(C)CN1CC[C@@]2(CCCN(C(=O)c3ccco3)C2)C1	u

# Reformatted field by field: entries from further up
> CCCNC(=O)c1csc(Nc2cccc3ccccc23)n1
  VDR inhibitor: -7%
> C/C(CC(=O)Nc1ccc(Cl)cc1)=N\NC(=O)C(=O)N1CCCCC1
  VDR inhibitor: -16%
> Cc1ccc2cc3c(N)c(C(=O)Nc4c(C)[nH]c(=O)[nH]c4=O)sc3nc2c1
  VDR inhibitor: 1%
> N#Cc1cccc(NC(=O)N2CCCC3(CCN(C(=O)c4ccco4)CC3)C2)c1
  VDR inhibitor: -22%

# Remaining list, next part.
canonical_smiles	VDR inhibitor
CC(=O)Nc1cccc(C(=O)N2CCN(Cc3ccccc3)CC2)c1	0%
O=C(Cn1c(=O)c2cccn2c2ccc(F)cc21)N1CCN(c2ccccc2F)CC1	-2%
COc1cccc(CNC(=S)Nc2cc(C)ccc2C)c1	2%
Cc1cccc(C(=O)Nc2ccc3c(c2)nc(C)n3C)c1	-13%
CC(C)(C)c1nnc(NS(=O)(=O)c2ccc([N+](=O)[O-])cc2)s1	u
NC(=O)COC(=O)CC1CC2CCC1C2 (configuration not stated)	-11%
CC(=O)c1ccc(S(=O)(=O)NCCC(=O)OC(C)C(=O)Nc2ccc(F)cc2)cc1 (configuration not stated)	-4%
O=C(Cc1ccccc1)NC(NNc1ccccc1)(C(F)(F)F)C(F)(F)F	u
O=C(c1cccc([N+](=O)[O-])c1)N1CCN(c2n[nH]c(=O)[nH]c2=O)CC1	-2%
O=C(NC1CCCCC1)C1CC(=O)N(c2cccc([N+](=O)[O-])c2)C1 (configuration not stated)	-9%
Cc1cc(C)cc(-n2c(SCC(=O)N3CCCC3)nc3c([nH]c4ccccc43)c2=O)c1	2%
O=Cc1ccccc1OCCN1CCCC1=O	-14%
COc1ccc(CC(=O)NCC(=O)N/N=C/c2sccc2C)cc1	-3%
Cc1ccc2c(c1)/C(=C/c1ccccc1)C(=O)N2	u
CC(C)CN(C(=O)CSc1n[nH]c(-c2cccs2)n1)C1CCS(=O)(=O)C1 (configuration not stated)	u
OCc1nnc2c3ccccc3c(-c3ccccc3)nn12	-8%

# Individual results from the results shown:
# CC(=O)Nc1cccc(C(=O)N2CCN(Cc3ccccc3)CC2)c1 | VDR inhibitor: 0%
# O=C(Cn1c(=O)c2cccn2c2ccc(F)cc21)N1CCN(c2ccccc2F)CC1 | VDR inhibitor: -2%
# OCc1nnc2c3ccccc3c(-c3ccccc3)nn12 | VDR inhibitor: -8%
# O=C(NC1CCCCC1)C1CC(=O)N(c2cccc([N+](=O)[O-])c2)C1 (configuration not stated) | VDR inhibitor: -9%
# O=C(c1cccc([N+](=O)[O-])c1)N1CCN(c2n[nH]c(=O)[nH]c2=O)CC1 | VDR inhibitor: -2%
# COc1cccc(CNC(=S)Nc2cc(C)ccc2C)c1 | VDR inhibitor: 2%

# Screening data as filed in PubChem.

# These rows are one share of the data. The share of hits here may be higher or lower than overall.
